Screens: PubChem BioAssay, National Center for Advancing Translational Sciences (NCATS)
Menin-MLL FL inh – inhibitors of human menin-MLL interaction, wild-type MLL peptide. Fluorescence polarization, fluorescein-MLL peptide displacement from menin. FP activity change, % at 61.4 µM. 290,000 tested, under 10 active. AID 1766; inconclusive = falling polarisation curve, or a change in total fluorescence; inactive = total fluorescence flat and polarisation flat or rising; no compound was filed as active; the % refers to the polarisation; negative = inhibition;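 further: % of control where 0% means no effect; inhibitors lower the polarisation; unlabelled MLL peptide was the positive control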
TRPML1 blocker – inhibitors of human TRPML1 channel. Q9GZU1. TRPML1-inducible cells, Ca2+ dye fluorescence, FDSS; stronger effect = lower value; inhibition of EC80 agonist-evoked calcium signal. activity change, negative = inhibition, % (concentration not given with the values). 390,000 tested, 0.02% active. AID 624415; in the data active means activity change below about -50%; inconclusive means about -30% to -50%; inactive means above about -30%;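 further: stimulus is agonist 54-4 at its EC80 concentration; on the % scale 0 is the no-effect control and ±100 the full control effect; compound concentration not given in the record; the text of the record puts the active cut at -80%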
Target sequence (Q9GZU1 whole entry, looked up): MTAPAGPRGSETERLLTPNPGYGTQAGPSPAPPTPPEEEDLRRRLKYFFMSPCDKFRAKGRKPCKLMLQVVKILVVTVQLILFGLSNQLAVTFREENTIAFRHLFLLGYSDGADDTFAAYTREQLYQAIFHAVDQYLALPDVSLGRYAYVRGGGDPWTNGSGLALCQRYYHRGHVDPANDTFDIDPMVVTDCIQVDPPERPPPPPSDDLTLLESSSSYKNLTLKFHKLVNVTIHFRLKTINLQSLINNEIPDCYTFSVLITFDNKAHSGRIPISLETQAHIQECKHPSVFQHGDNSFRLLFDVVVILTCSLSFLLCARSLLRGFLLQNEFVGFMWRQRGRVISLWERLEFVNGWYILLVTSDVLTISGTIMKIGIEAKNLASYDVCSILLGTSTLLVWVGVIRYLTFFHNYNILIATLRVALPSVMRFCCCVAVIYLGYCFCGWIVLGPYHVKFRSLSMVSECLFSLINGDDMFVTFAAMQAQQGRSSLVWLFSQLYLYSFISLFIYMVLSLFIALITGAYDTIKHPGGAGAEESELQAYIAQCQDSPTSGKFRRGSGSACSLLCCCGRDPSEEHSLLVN
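TRPML1-DL cells, Tet-induced overnight (~16 h, 37 °C) at 1,500 cells/well, were loaded with Ca8 no-wash dye plus quencher for 45-90 min at room temperature. Compounds were pinned during FDSS kinetic reading; agonist 54-4 at EC80 (4 uM final) then added.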
gsp antagonist – gsp mutant antagonism; 340,000 tested, 0.4% active; Potency, µM (series often up to 76.9 µM), inactives show top-dose activity change, negative = inhibition, most hits filed as inhibitors; gsp-mutant cells, cAMP HTRF, 30 min; control for the full effect not named in the record; AID 624288; active = falling curve of any shape with a large fitted effect; inconclusive = falling curve, mostly with a smaller effect; inactive = flat or rising curve; cell line not stated here;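 further: intracellular cAMP measured with PDE inhibitor Ro 20-1724 present during compound exposure; potency means the concentration at half of the fitted maximal effect; on the % scale 0 is the no-effect control and ±100 the full control effect; nearly all actives have a fitted effect of over 65% in size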
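Cells in G418 medium, seeded 16-24 h, 37C; buffer exchange to DPBS + 1 mM CaCl2, 0.5 mM MgCl2, 0.05% BSA; cpds in DMSO + […] (300 uM stock), 30 min 37C; HTRF cAMP detection.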
Sfp PPTase inh – inhibitors of Bacillus subtilis Sfp phosphopantetheinyl transferase; Biochemical Sfp PPTase activity, qHTS; Q9F4F7; Potency, µM, inactives show max response, negative = inhibition, usual class: inhibitors; 310,000 tested, 3.5% active; active means well fitted inhibition curve with a large enough effect; inconclusive means small, poorly fitted or top-dose-only effect, or another doubt; inactive means no such curve, though single readings can be large or run the other way;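 further: the enzyme is Sfp with the accession as filed and its product quenches rhodamine fluorescence; potency means the concentration at half of the fitted maximal effect; 0% = enzyme reaction without inhibitor and -100% = no enzyme wells; top concentration of the series not given in the record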
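With Hepes-Na pH 7.6 buffer containing 10 mM MgCl2, Sfp (15 nM) modified BHQ-2-YbbR (12.5 uM) using rhodamine-CoA (5 uM). Two reads 30 minutes apart at 525/598 nm yielded each well's rate.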
gsp agonist – activates gsp, the McCune-Albright syndrome mutation; gsp mutant cells, cAMP HTRF, 30 min; control for the full effect not named in the record; Potency, µM (doses to about 76.9 µM), without a hit: top-dose activation (cAMP increase), hits mostly activators; 340,000 tested, 0.13% active; AID 624287; active = well fitted activation curve with a large enough effect; inconclusive = small, poorly fitted or top-dose-only effect, or another doubt; inactive = no such curve, though single readings can be large or run the other way; cell line not stated here;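 further: phosphodiesterase inhibitor Ro 20-1724 added with compounds to block cAMP breakdown; potency means the concentration at half of the fitted maximal effect; nearly all actives have a fitted effect of over 60% in size; about a fifth of the inactives were tested at one dose only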
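Cells in DMEM/10% FBS with G418 were pretreated with compounds in DMSO plus […] (300 uM stock) for 30 min at 37C. cAMP was measured by HTRF (cAMP-d2 plus anti-cAMP antibody-K) after 30 min at room temperature.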
TRPV1 potentiator – enhances activation of the human vanilloid receptor TRPV1 | TRPV1-expressing cells, Fluo-8 calcium influx, capsaicin EC20 potentiation; host cell line not named in the record; control for the full effect not named in the record | potentiation, % at 8.33 µM | 320,000 tested, 0.02% active | AID 540277; active means potentiation above 80%; inconclusive means 30% to 80%; inactive means below 30%; further: 0% is about no effect
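TRPV1-expressing cells were cultured overnight at 35.5C and loaded with Fluo-8 calcium dye for 40 to 90 min at room temperature. After a 10 s baseline, compound was added and calcium influx was read kinetically for 3 min (ex 480/em 520 nm).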
ClpP mod – qHTS Assay for Activators of ClpP; AID 651965, 2013; purified B. subtilis ClpP, FRET peptide cleavage, 20 min; ATP-dependent Clp protease proteolytic subunit (Bacillus subtilis (strain 168)), P80244; Potency, µM (highest dose often 57.5 µM), inactives show at the top dose activity change, negative = active; 340,000 tested, 1.9% active; active = well fitted falling curve with a large enough effect; inconclusive = small, poorly fitted or top-dose-only effect; inactive = no such curve, though single readings can be large or run the other way; further: potency means the concentration at half of the fitted maximal effect; the source files actives as falling curves though it sought activators and does not explain the sign; nearly all actives have a fitted effect of over 65% in size; many hits overshoot -100%
Target sequence (P80244 whole entry, looked up): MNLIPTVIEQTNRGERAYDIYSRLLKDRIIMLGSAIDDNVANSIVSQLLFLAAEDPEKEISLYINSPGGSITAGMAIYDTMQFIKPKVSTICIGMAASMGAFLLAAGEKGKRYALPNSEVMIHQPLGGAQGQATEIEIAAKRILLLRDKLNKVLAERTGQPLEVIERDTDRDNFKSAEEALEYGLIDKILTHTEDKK
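FRET quenching reversal measured ClpP activation: 10 microg/mL B. subtilis ClpP at pH 8 with the FRET-FV decapeptide, read at 430 nm after 320 nm excitation. The 20-min minus 0-min signal was scaled between DMSO/no-enzyme wells and ADEP (5.8 microM final).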
Starred values were filed as active, the others as inactive; ? = inconclusive; / = not tested or not shown; [ ] = remark or other dose.

SMILES	Menin-MLL FL inh	TRPML1 blocker	gsp antagonist	Sfp PPTase inh	gsp agonist	TRPV1 potentiator	ClpP mod
Cc1ccc(C)c(NC(=O)CSc2nnc(CNC(=O)c3cccs3)o2)c1	-0.6	-22	-6%	25%	-2%	-4	1.0%
CCOC(=O)C1CCN(C(=O)C2(NC(=O)NC3CCCCC3)CCCCC2)CC1	-5.0	9	7%	21%	-28%	-2	1.0%
Cc1cc(C)c(C(N)=O)c(Nc2ccc3c(c2)OCCO3)n1	-1.0	20	1%	17%	0%	1	-1.4%
O=C(c1ccc([N+](=O)[O-])cc1)N1CCC(n2nnc3cc(F)ccc32)CC1	-0.5	10	2%	-19%	-21%	5	0.6%
O=C(CN1C(=O)NC2(CCCCCC2)C1=O)NCc1cccs1	-0.4	32	4%	-13%	26%	5	0.0%
Cc1ccc(OCc2nnc(SCC(=O)c3ccccc3)n2-c2ccccc2)cc1	0.5	5	-30%	-8%	-37%[inhibitor]	-8	1.3%
O=C1OC/C(=C(/O)c2ccc(Cl)cc2)C1=O	0.5	-10	-5%	7%	-9%	3	1.5%
CCN1C[C@@H]2[C@@H]3C(=O)N(C)C(=O)[C@@H]3[C@](Cc3ccccc3)(C1=O)N2C(=O)c1ccc(F)cc1	/	23	1%	/	10%	/	-1.9%
CCCOc1ccc(C(=O)CCC(=O)OCC(=O)Nc2ccc(OCC)cc2)cc1	-4.1	/	/	10%	/	-13	/
COc1ccc(OC)c(C(C)NC(=O)Nc2ccccc2)c1 (stereo not given)	4.3	15	2%	3%	-7%	-16	0.3%
CC(C)=CCC/C(C)=C/C(N)=O	1.9	-2	13%	?	15%[15.4 µM]	17	/
CCn1c(CNC(=O)COC)nc2ccccc21	1.1	2	9%	19%	-26%	15	?
COc1cccc(NC(=O)CN2CCN(C(=O)c3ccco3)CC2)c1	/	51	-4%	3%	-9%[15.4 µM]	2	1.7%
CC(C)OCCCNC(=O)c1cc(S(=O)(=O)N2CCCCC2)c[nH]1	4.4	1	8%	20%	4%	-10	-3.6%
O=C1NC(=O)c2cc(Nc3ccccc3)c(Nc3ccccc3)cc21	?	/	/	7%	/	/	-2.0%
Cc1ccc(C(=O)NC2CCN(S(=O)(=O)c3ccc(F)cc3)CC2)cc1	-0.5	2	6%	-6%	28%	-1	-0.3%
CCCCCOCC(O)CCC(=O)NN (stereo not given)	2.2	10	6%	-7%	-11%	-2	-4.7%
CCOC(=O)C1CCN(C(=O)c2cccnc2Oc2ccccc2)CC1	-1.5	1	3%	20%	12%	?	/
Cc1cc(C)cc(-n2ncc3c2CCCC3NC(=O)CN2CCCC2=O)c1 (stereo not given)	/	-1	9%	10%	26%	?	-2.1%
COc1cccc(CNC(=O)C2=Cc3cccc(OC)c3OC2)c1	-3.5	?	5%	-1%	-5%	-24	/
Cc1csc(NC(=S)NC(=O)c2ccccc2)n1	-1.8	9	-3%	3%	18%	1	/
Cc1cc(C)cc(N2C(=O)C=CC2=O)c1	/	-12	?	/	-11%	/	-8.1%
C[C@@H]1CN(C(=O)c2nc3ccc(Cl)cn3c2CNCC[C@@H]2C[C@@H]3C=C[C@H]2C3)C[C@H](C)O1	/	9	-15%	1%	22%[15.4 µM]	-4	/
Brc1ccccc1/C=N/Nc1nc2ccccc2o1	/	22	4%	-1%	-9%[15.4 µM]	7	/
Cc1nc(NC(=O)/C=C/c2ccco2)sc1C	?	10	-2%	71µM*	?	-19	-3.0%
CCOC(=O)c1cc(-c2ccccc2)n[nH]1	0.8	3	-28%	12%	-6%[15.4 µM]	-2	-2.0%
CCc1nnc(NC(=O)CSc2nnc(-c3cc4ccccc4cc3O)n2CC)s1	3.8	17	28µM*	-3%	4%	1	-7.5%
Cc1ccc(/C=N/N(C)S(=O)(=O)c2ccc(C)cc2)cc1	1.8	30	-16%	5%	-3%	8	-2.3%
Cc1ccc(N2C(=O)N(C(C)C)C(C)(C)CC2(C)O)cc1 (stereo not given)	-1.9	7	5%	1%	-2%[15.4 µM]	/	-3.0%
Cc1ccc(OCc2nnc(SCc3cc(=O)[nH]c4ccccc34)o2)cc1	-0.1	-6	-17%	2%	6%	10	-1.0%
Cc1ccc(NC(=O)c2nccnc2C(=O)O)cc1C	1.9	41	3%	15%	-3%	-6	0.3%
Nc1ccccc1C(=O)NC1CCCNC1=O (stereo not given)	/	13	6%	/	-26%	/	3.8%
O=C(Cc1nc2ccccc2[nH]1)c1cccc([N+](=O)[O-])c1	8.2	23	-18%	14µM*	-22%	/	-6.8%
Cc1cc(C)n2c(SCC#N)nnc2n1	-0.6	-4	14%	2%	-8%	26	-1.3%
Cc1ccc(NC(=O)CN2C(=O)NC(C)(C3CC3)C2=O)c(C)c1 (stereo not given)	/	-4	1%	/	-26%	1	-1.5%
C=COCCNC(=S)N1CCOCCOCCN(C(=S)NCCOC=C)CCOCCOCC1	-5.2	2	-6%	7%	3%	9	-0.8%
Nc1ncnc2c(C3OC(CO)C(O)C3O)c[nH]c12 (stereo not given)	/	6	-23%	/	7%	/	-3.0%
CCCCCC(=O)N1C[C@@H](n2cc(C3CC3)nn2)[C@H](O)C[C@@H]1c1ccc(Cl)cc1	/	4	/	/	16%	/	1.5%
COc1cccc(N2CC(C(=O)Nc3nnc(SCC(=O)N4CCOCC4)s3)CC2=O)c1 (stereo not given)	-1.8	17	9%	-21%	-53%[inhibitor]	8	1.1%
COc1ccc(S(=O)(=O)N2CCNC(=O)C2)cc1Br	2.9	-5	3%	21%	-5%[15.4 µM]	-22	-1.8%
O=C(CSc1ccc(S(=O)(=O)N2CCOCC2)cn1)Nc1ccc(OC(F)F)cc1	/	-5	-26%	/	-15%	10	-0.7%
Cc1cc2oc(=O)cc(CN3CCN(Cc4ccccc4)CC3)c2cc1O	-3.4	-15	-12%	-17%	-9%	-18	-3.9%
CCOC(=O)c1[nH]c2ccccc2c1NC(=O)C(C)(C)C	5.4	-11	11%	14%	0%	/	5.0%
CC(C)N(C(=O)Cn1cc(SCC(N)=O)c2ccccc21)C(C)C	0.2	-5	-6%	-7%	2%[15.4 µM]	4	/
Cn1c(-c2cccc([N+](=O)[O-])c2)cnc1NCc1ccc(C#N)cc1	-1.5	-13	-3%	-16%	4%	-4	1.8%
Cc1cccc(N(Cc2ccccc2)C(=O)c2ccc(S(C)(=O)=O)cc2)c1	/	14	-4%	1%	-2%	3	-1.6%
CCCn1nc(C(=O)NNC(=O)c2cc(S(=O)(=O)NC)ccc2Br)c2ccccc2c1=O	/	26	-3%	/	-3%[15.4 µM]	-12	/
CC1(C)CC(=O)/C(=C(\O)c2ccccc2)C(=NCCO)C1	-1.1	-15	5%	8%	-30%	2	-2.2%
NC(=O)[C@@H]1CCCN1C(=O)[C@@H](Cc1cnc[nH]1)NC(=O)[C@@H]1CCC(=O)N1	/	3	12%	/	20%	4	-3.7%
CC(=O)OCC(OC(C)=O)C(OC(C)=O)C(OC(C)=O)C(=O)Nc1ccccc1 (stereo not given)	0.0	-9	-15%	4%	-8%[15.4 µM]	1	/
CNc1ncnc(Sc2ccc(Cl)cc2)c1[N+](=O)[O-]	0.3	-4	-3%	16%	-3%[15.4 µM]	-2	0.0%
CCOc1ccc2oc(C(=O)N3CCN(Cc4ccccc4)CC3)c(C)c2c1	1.0	7	-5%	-3%	13%	-16	/
CN(Cc1ccc(F)cc1)C(=O)c1sccc1-c1ccccc1	/	9	-11%	-9%	-27%	7	1.2%
Cc1ccc(S(=O)(=O)c2c(C)cc(C)nc2Cl)c(C)c1	-1.0	45	?	6%	-33%	-1	2.1%
O=C(c1ccccc1F)N1CCN(c2ccccn2)CC1	-3.5	-4	0%	11%	-23%	?	/
CCCn1c(CCc2ccccc2)nnc1SCC(=O)N1CCOCC1	2.1	10	7%	-1%	?	-1	0.6%
O=C(NCc1ccc(F)cc1)C1CCCN1C(=O)Nc1ccc(F)cc1 (stereo not given)	-1.8	-7	7%	19%	12%	11	0.7%
CCN(CC)S(=O)(=O)c1ccc(Cl)c(NC(=O)COC(=O)c2c(C)noc2C)c1	0.9	15	-11%	-8%	1%	9	-2.4%
CN(C)CCCN(C(=O)c1ccc(C(=O)c2ccccc2)cc1)c1nc2cc3c(cc2s1)OCCO3	/	19	-13%	-18%	-21%	-3	1.0%
COC(=O)c1ccc(NS(=O)(=O)c2cc3c4c(c2)CCN4C(=O)CC3)cc1	/	1	-18%	/	-7%[15.4 µM]	-13	/
Going on with the list:
SMILES	Menin-MLL FL inh	TRPML1 blocker	gsp antagonist	Sfp PPTase inh	gsp agonist	TRPV1 potentiator	ClpP mod
COC(=O)c1ccccc1NC(=O)CSc1nnc(-c2cccnc2)o1	1.5	0	-26%	19%	-10%[15.4 µM]	-18	/
CCC(=O)c1ccc(OCC(O)CN2CCOCC2)cc1 (stereo not given)	6.4	13	6%	18%	-24%	2	-0.8%
NC(=NCCc1ccccc1)NS(=O)(=O)c1ccccc1	4.2	-11	5%	12%	17%	1	0.9%
O=C(Nc1cccnc1Cl)c1cc(-c2ccc(O)cc2)on1	-6.0	-16	4%	1%	13%	-2	/
COC(=O)[C@]1(Cc2ccccc2)N[C@H](CN(C)C(=O)Nc2ccc(OC)cc2)[C@@H]2C(=O)N(C)C(=O)[C@@H]21	/	0	0%	/	/	/	0.0%
O=C(NNC(=O)c1ccccc1F)c1ccc(-c2ccccc2Cl)o1	/	3	/	/	?	/	-30%
CCOC(=O)C1(Cc2cccc(Cl)c2)CCCN(C(=O)c2cccc(C)n2)C1 (stereo not given)	-0.1	-5	-2%	-1%	9%	-9	-1.7%
O=C(COC(=O)C1CC1)Nc1ccc2c(c1)OCO2	-1.8	-12	-1%	14%	3%[15.4 µM]	-7	/
O=c1cn[nH]c2ccc(Br)cc12	/	2	-20%	/	9%	/	1.6%
CC(C)CC(=O)NC(=S)Nc1ccc(S(=O)(=O)Nc2nccs2)cc1	-0.1	-10	-10%	12%	7%	5	2.1%
COc1ccccc1NC(=O)C(C)OC(=O)Cc1n[nH]c(=O)c2ccccc12 (stereo not given)	/	-3	2%	/	23%	-22	?
